Screening data from PubChem.
RGS16-Gao HTS – RGS16-Galphao interaction regulator (human); O15492+P09471; bead-based flow cytometry RGS16-Galphao binding, fluorescence; actives lie on both sides; binding response (% of control), % at 10 µM; actives 0.38% (n = 220,000); AID 1441;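 active = below 25% or above 175%, edge rows of some plates excepted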;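 also: Galphao activated by GDP with aluminum fluoride before binding; 100% = wells without compound and 0% = beads without RGS; some results beyond the cut were filed as inactive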
Target sequence (O15492 whole entry, looked up): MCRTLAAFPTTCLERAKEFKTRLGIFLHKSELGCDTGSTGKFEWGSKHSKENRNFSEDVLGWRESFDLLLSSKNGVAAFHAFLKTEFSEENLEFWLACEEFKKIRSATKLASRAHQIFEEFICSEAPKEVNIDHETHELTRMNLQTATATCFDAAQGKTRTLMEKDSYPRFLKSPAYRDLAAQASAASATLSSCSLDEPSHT
Target sequence (P09471 whole entry, looked up): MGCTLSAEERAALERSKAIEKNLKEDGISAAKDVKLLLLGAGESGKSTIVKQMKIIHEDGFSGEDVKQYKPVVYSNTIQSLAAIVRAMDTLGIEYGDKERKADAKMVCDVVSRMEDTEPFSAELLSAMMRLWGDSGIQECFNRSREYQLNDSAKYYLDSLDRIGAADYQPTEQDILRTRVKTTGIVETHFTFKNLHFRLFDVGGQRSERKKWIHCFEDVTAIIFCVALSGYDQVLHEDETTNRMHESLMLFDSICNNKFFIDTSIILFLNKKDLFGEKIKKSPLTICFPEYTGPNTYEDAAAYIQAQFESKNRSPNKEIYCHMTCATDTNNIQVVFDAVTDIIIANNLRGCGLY
Insulin prom inh – TRM-6 insulin promoter activity inhibition. TRM-6 cells (human fetal islet line), insulin promoter-eGFP reporter, imaging; reporter expression induced with tamoxifen. actives 0.9% (n = 130,000). inhibition, % at 2 µM;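 active = inhibition above the mean plus 3 SD, with well images judged a real hit on visual review, cut at about 60% in these data, passing the limit was not always enough; inconclusive = inhibition over the cutoff but images rejected on review; inactive = inhibition not above the cutoff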
PKD1 inh – inhibitors of human PKD1 kinase; Q15139; PKD1 kinase fluorescence polarization assay; inhibition, %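 (about 10 µM by stock and volumes)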; actives 0.056% (n = 200,000); AID 797;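 active = inhibition of 50% or more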;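 also: controls were vehicle for no effect and a reference inhibitor for full effect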
GALR2 ag – activates the human galanin receptor 2; O43603; GALR2-expressing cells, agonist activation read-out; activation, %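 (tested at 5 µM)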; actives 0.48% (n = 140,000);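 active = above mean plus 3 SD of all compounds, about 5% in these data, not always enough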;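 also: 0% = vehicle buffer wells and 100% = reference agonist at full effect; tested in CHO reporter cells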
Target sequence (O43603 whole entry, looked up): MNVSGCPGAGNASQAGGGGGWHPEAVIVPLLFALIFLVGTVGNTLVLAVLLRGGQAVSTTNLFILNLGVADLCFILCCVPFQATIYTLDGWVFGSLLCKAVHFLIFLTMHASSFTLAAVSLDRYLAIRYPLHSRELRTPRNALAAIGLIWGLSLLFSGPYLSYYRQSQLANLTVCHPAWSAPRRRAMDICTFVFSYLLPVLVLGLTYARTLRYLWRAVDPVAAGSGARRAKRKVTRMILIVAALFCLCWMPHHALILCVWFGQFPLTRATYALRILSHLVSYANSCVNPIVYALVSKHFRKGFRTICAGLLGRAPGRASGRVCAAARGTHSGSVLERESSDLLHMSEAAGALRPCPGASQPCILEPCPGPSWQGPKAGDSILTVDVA
HSV augment – HSV replication enhancement. HSV replication augmentation in cells, fold increase. maximum fold increase. AID 1956. actives 0.005% (n = 220,000);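 active = peak rise of 1.5-fold or more in the series; inconclusive = self-fluorescent or not available for retest; tested in PC3 cells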;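 also: first round at 10 µM; read as green reporter fluorescence; hits show the peak of a series up to 25 µM; 1 = signal of infected wells without compound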
Insulin prom inh cell count – recorded beside Insulin prom inh, whose call it bears; normalized cell count, %; measured here: cell count, toxicity; reference of the scale not given here;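 cells exposed to compound for 48 h; stained nuclei by imaging scaled within each plate; lower means fewer cells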
HSV augment primary fold – further read-out of HSV augment, marked with its call; fold increase; compound at 10 µM; measured here: primary screen fold increase 10 uM; tested in PC3 cells;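 GFP signal in the first replicate; 1 = infected wells without compound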
* = called active by the depositor; i = inactive; ? = inconclusive; . = no result given.

SMILES | RGS16-Gao HTS | Insulin prom inh | Insulin prom inh cell count | PKD1 inh | GALR2 ag | HSV augment | HSV augment primary fold
O=C(Nc1cc(C(F)(F)F)ccc1N1CCOCC1)c1ccc[n+]([O-])c1 | 91.1 | -27.0 | 90.7 | -5.7 | -1.5 | i | 0.91
Cc1cccc(CCN(CC(=O)NC(C)(C)C)C(=O)c2csnn2)c1 | 107.2 | . | . | 0.1 | . | i | 0.98
CCOc1cc(-c2noc(-c3cccnc3)n2)ccc1OC | 103.5 | . | . | -4.0 | -3.2 | i | 0.94
Cc1occc1-c1nnc(SCC(=O)Nc2ccc3c(c2)OCO3)n1CC1CCCO1 (stereo unspecified) | 106.0 | -11.8 | 128.8 | -4.8 | -0.9 | i | 1.02
COc1ccccc1C(=O)COC(=O)CNS(=O)(=O)c1ccc(C)cc1 | 101.0 | . | . | -0.9 | . | i | 0.98
O=C(NC1CCCCC1)c1noc2c1CCCCC2 | 96.9 | . | . | -8.9 | -1.3 | i | 1.04
COCCn1c(SCC(=O)Nc2nnc(C)s2)nnc1-c1ccco1 | 111.7 | -46.7 | 91.2 | 1.7 | . | i | 0.98
CCOc1ccc(Cc2nc(-c3nonc3N)no2)cc1OCC | 105.3 | 6.2 | 147.8 | -9.2 | -0.4 | . | .
Cn1c(CCNC(=O)OC(C)(C)C)n[nH]c1=S | 95.9 | -66.7 | 118.6 | -2.2 | 0.3 | i | 1.02
CC(C)NC(=O)Cn1c(=O)cnc2ccccc21 | 105.2 | -23.3 | 64.8 | -6.6 | -1.8 | i | 1.02
COCCNC(=O)C(c1ccc(C)o1)N(C(=O)C(=O)NC1CCCCC1)c1ccc(F)cc1 (stereo unspecified) | 97.8 | 13.3 | 112.3 | -2.0 | . | i | 0.9
CCCn1nnnc1-c1cc(Cl)cc(Cl)c1 | 96.6 | . | . | -5.3 | -1.9 | i | 0.95
O=C1Nc2ccccc2C(=O)C1(Cl)Cc1ccccc1 (stereo unspecified) | 54.8 | -29.6 | 88.0 | 1.9 | -1.9 | i | 0.83
CCCCOc1ccc(S(=O)(=O)Nc2ccc(NC(C)=O)cc2)cc1 | 116.2 | -131.2 | 83.0 | 2.8 | 0.1 | i | 0.88
CC1(C)Cc2c(sc3nc(-c4ccccc4)n(N)c(=O)c23)CO1 | 99.3 | -20.5 | 112.4 | -2.9 | -1.1 | i | 0.95
COC(=O)CSc1nnc(-c2ccc(S(=O)(=O)N3CCCC3)cc2)n1C | 90.6 | 31.2 | 47.6 | -0.8 | -0.4 | i | 0.97
CCCS(=O)(=O)N1CCCC(C(=O)NCCN2CCC(Cc3ccccc3)CC2)C1 (stereo unspecified) | 94.5 | . | . | -0.3 | -0.6 | i | 0.92
Cc1ccc(C2NC(=O)NC3=C2CCc2ccccc23)cc1 (stereo unspecified) | 90.7 | 64.3 | 90.5 | -1.1 | -0.7 | i | 0.89
FC(F)(F)c1ccccc1NC(=S)N1CCc2ccccc2C1 | 108.3 | . | . | -2.2 | . | i | 0.97
O=C(Cc1ccccc1)N1CCC(c2nc(-c3ccc(F)cc3)no2)CC1 | 101.8 | . | . | 3.7 | -1.0 | i | 1
CCOC(=O)N1CCC(NS(=O)(=O)c2cc(Br)cnc2N)CC1 | 103.3 | . | . | 1.2 | -1.7 | i | 1.01
CSc1ncccc1C(=O)OCC(=O)c1ccccc1 | 99.8 | . | . | -1.5 | . | i | 0.86
O=C(NCCc1ccccn1)C1CCN(S(=O)(=O)c2ccc3ccccc3c2)CC1 | 110.2 | -105.6 | 50.5 | -2.9 | . | i | 0.96
Cc1ccc(NC(=O)CN(C)S(=O)(=O)c2cccc3nsnc23)cc1 | 94.2 | . | . | 3.5 | -0.6 | i | 0.94
Cc1ccc(NCCC(=O)c2ccccc2)cc1Cl | 102.2 | . | . | -11.0 | . | i | 0.88
O=C(Nc1nnc(-c2ccc(Cl)cc2)o1)c1cccc(N2C(=O)CCC2=O)c1 | 185.9 | -7.4 | 92.6 | -12.4 | -0.5 | i | 0.83
CCN(C(=S)NCc1ccccc1)c1ccccc1 | 86.6 | . | . | -3.7 | . | i | 0.99
CSc1nc2sc(-c3ccccc3)cc2c(=O)n1N | 104.7 | . | . | 9.7 | -3.4 | . | .
Cc1ccc(S(=O)(=O)NCC(=O)N(c2ccccc2)C(C(=O)NCc2ccccc2)c2ccco2)cc1 (stereo unspecified) | 107.5 | -58.3 | 149.9 | 3.0 | -0.8 | i | 0.9
Cc1cc(C)cc(N=C2NC(=O)/C(=C/c3cccs3)S2)c1 | 94.0 | -22.9 | 156.5 | 6.2 | 1.0 | i | 0.8
O=C(c1cccc(-c2ccc(O)cc2)c1)N1CCOCC1 | 106.5 | -21.6 | 104.3 | -6.6 | -1.1 | i | 0.99
O=[N+]([O-])c1cc(C(F)(F)F)cc([N+](=O)[O-])c1N1CCCNCC1 | 100.6 | . | . | 2.5 | . | i | 0.92
CCOC(=O)N1CCN(C(=O)c2c(-c3ccccc3)noc2C)CC1 | 91.3 | 60.0 | 48.2 | 0.5 | -3.2 | i | 0.81
COc1ccc(C)cc1S(=O)(=O)N1CCC(C)CC1 | 102.4 | . | . | -1.5 | -4.3 | i | 1.2
CC(C)(C#N)NC(=O)c1ccco1 | 92.4 | -15.4 | 74.1 | -0.8 | -0.7 | i | 0.997
Cc1cc(C(=O)Cn2nc(C(=O)O)c3ccccc3c2=O)c(C)n1-c1cccc(C(F)(F)F)c1 | 99.8 | . | . | . | . | i | 0.71
CCOc1c(Br)cc(CNc2ccc(N3CCOCC3)cc2)cc1OC | 89.2 | . | . | . | . | i | 0.81
O=C(Nn1cc(C(=O)Nc2ccc(F)cc2F)c2ccccc2c1=O)c1cnccn1 | 89.8 | . | . | -6.2 | . | i | 0.96
Cc1[nH]cnc1CSCc1ccc(F)cc1 | 63.9 | -9.1 | 93.3 | 8.0 | -1.8 | i | 0.96
O=C(CSc1nnc(NC2CCCCC2)s1)NCc1ccco1 | 98.3 | . | . | -5.2 | . | i | 0.92
CCOC(=O)Cc1nc(-c2ccc(Cl)cc2)n[nH]1 | 99.0 | . | . | -6.0 | . | i | 0.97
CCOC1OC(=O)C(Cl)=C1Nc1ccccc1C (stereo unspecified) | 94.5 | 42.9 | 98.9 | -0.9 | -0.5 | i | 1.01
N#CCn1cc(/C=N/NC(=O)c2cc3c(ccc4ccccc43)o2)c2ccccc21 | 104.0 | . | . | . | . | i | 0.74
Cc1cc(C)cc(N(CC(=O)Nc2ccccc2)C2=NC3CS(=O)(=O)CC3S2)c1 (stereo unspecified) | 98.3 | -25.0 | 103.7 | -2.9 | . | i | 0.785
CCN=C1NN=C(c2ccc(C)cc2)CS1 | 69.3 | -27.0 | 71.9 | -11.4 | -3.7 | i | 0.85
CCCN1C2=NS(=O)(=O)CCN2c2ccccc21 | 102.5 | -12.1 | 100.4 | -3.3 | -1.2 | i | 0.97
CSc1ncccc1C(=O)OCc1ccccc1Cl | 102.9 | 15.4 | 102.8 | 5.5 | . | i | 1.04
O=C(O)c1ccc(/C=N/Nc2nc(N3CCCCC3)nc(N3CCCCC3)n2)cc1 | 100.1 | . | . | . | . | i | 0.88

Structures from the list above with a COOH group:
SMILES | RGS16-Gao HTS | Insulin prom inh | Insulin prom inh cell count | PKD1 inh | GALR2 ag | HSV augment | HSV augment primary fold
Cc1cc(C(=O)Cn2nc(C(=O)O)c3ccccc3c2=O)c(C)n1-c1cccc(C(F)(F)F)c1 | 99.8 | . | . | . | . | i | 0.71
O=C(O)c1ccc(/C=N/Nc2nc(N3CCCCC3)nc(N3CCCCC3)n2)cc1 | 100.1 | . | . | . | . | i | 0.88

One compound at a time (already shown). Values in the order: RGS16-Gao HTS, Insulin prom inh, Insulin prom inh cell count, PKD1 inh, GALR2 ag, HSV augment, HSV augment primary fold
Cc1[nH]cnc1CSCc1ccc(F)cc1 is entered as 63.9, -9.1, 93.3, 8.0, -1.8, i, 0.96
O=C(Nn1cc(C(=O)Nc2ccc(F)cc2F)c2ccccc2c1=O)c1cnccn1 is entered as 89.8, ., ., -6.2, ., i, 0.96

Later entries
SMILES | RGS16-Gao HTS | Insulin prom inh | Insulin prom inh cell count | PKD1 inh | GALR2 ag | HSV augment | HSV augment primary fold
O=[N+]([O-])c1cccc(-c2nc(NCc3ccccc3)c3ccccc3n2)c1 | 105.4 | -322.2 | 46.9 | -8.4 | -1.8 | i | 0.82
COc1ccc(NC(=S)Nc2ccc(OC)cc2OC)c(OC)c1 | 74.0 | 36.4 | 87.4 | 4.5 | -1.7 | i | 0.92
COCC(C)NC(=O)c1ccc(-n2nc(C(F)(F)F)cc2-c2cccs2)cc1 (stereo unspecified) | 101.0 | 40.9 | 46.1 | -4.8 | -3.2 | i | 0.96
COc1ccccc1C(=O)Nc1ccccn1 | 110.6 | 0.0 | 128.9 | 0.0 | -2.9 | i | 1.09
Cc1onc(-c2ccccc2)c1C(=O)N/N=C/c1ccc([N+](=O)[O-])s1 | 97.4 | -26.7 | 127.9 | -3.2 | -0.4 | i | 0.78
CCCCn1c(=O)[nH]c(=O)c2c1nc(-c1ccc(-c3ccccc3Br)o1)n2CCOC | 89.0 | 16.3 | 72.5 | 0.7 | -1.5 | i | 0.85
COc1ccc2nc(SCC(=O)Nc3ccc4sc(C)nc4c3)c(C#N)cc2c1 | 98.0 | -29.2 | 92.9 | -5.7 | -1.6 | i | 1.22
CN1CCN(/N=C/c2ccc(-c3ccc([N+](=O)[O-])cc3)o2)CC1 | 118.5 | . | . | -6.1 | . | i | 1.27
Cc1ccc(S(=O)(=O)Nc2c(C)n(C)n(-c3ccccc3)c2=O)cc1C(=O)NCc1ccccn1 | 103.5 | -142.9 | 140.0 | -6.5 | -2.1 | i | 0.94
CCCc1nc(SCC(=O)Nc2cc(Cl)ccc2OC)c2c(=O)n(C)c(=O)n(C)c2n1 | 114.0 | . | . | -0.4 | -1.2 | i | 0.99
COc1ccc2nc3cccc(OC)c3nc2c1 | 96.8 | . | . | -7.5 | . | i | 1.02
CCOCC(=O)Nc1cccc(C(=O)OCC)c1 | 108.0 | 15.8 | 187.6 | -1.0 | 1.5 | i | 1.05

Filtered by structure: those above with a cyano group (three)
SMILES | RGS16-Gao HTS | Insulin prom inh | Insulin prom inh cell count | PKD1 inh | GALR2 ag | HSV augment | HSV augment primary fold
CC(C)(C#N)NC(=O)c1ccco1 | 92.4 | -15.4 | 74.1 | -0.8 | -0.7 | i | 0.997
N#CCn1cc(/C=N/NC(=O)c2cc3c(ccc4ccccc43)o2)c2ccccc21 | 104.0 | . | . | . | . | i | 0.74
COc1ccc2nc(SCC(=O)Nc3ccc4sc(C)nc4c3)c(C#N)cc2c1 | 98.0 | -29.2 | 92.9 | -5.7 | -1.6 | i | 1.22

(further entries)
SMILES | RGS16-Gao HTS | Insulin prom inh | Insulin prom inh cell count | PKD1 inh | GALR2 ag | HSV augment | HSV augment primary fold
NNC(=O)CCc1nc2ccccc2[nH]1 | 102.8 | . | . | -1.9 | . | i | 1.04
COc1cccc(-c2nn(-c3ccccc3)cc2CN(C)C(C)c2ccon2)c1 (stereo unspecified) | 109.8 | . | . | -6.0 | . | i | 0.97
O=C(CCN1CCOCC1)Nc1ccc2c(c1)CCC2 | 181.2 | 0.0 | 79.1 | -9.7 | -1.6 | i | 1.03
CCC1(Cc2ccccc2)NC(=O)c2ccccc2O1 (stereo unspecified) | 107.7 | -7.7 | 130.0 | 8.0 | . | i | 0.89
COc1cc(S(=O)(=O)N(C)C2CCCCC2)c(C)cc1C | 98.2 | . | . | -8.5 | . | i | 1
Cc1ccccc1NC(=O)c1cnc2ccccn2c1=O | 97.8 | . | . | 8.1 | -1.9 | i | 1.02
O=C1CC(c2cccnc2)c2cc3c(cc2N1)OCO3 (stereo unspecified) | 102.9 | . | . | -0.5 | -2.0 | i | 0.8
Cn1ncc(Br)c1C(=O)N1CCOCC1 | 101.8 | -23.3 | 105.0 | -3.2 | -0.2 | i | 0.94
COc1ccc(N2C(=O)C(Cl)=C(N3CCCC3)C2=O)cc1 | 101.7 | . | . | 15.4 | -0.8 | i | 1
O=c1c(/C=C(\O)c2ccccc2)nc2ccccc2n1-c1ccccc1 | 43.8 | -34.5 | 96.5 | -2.7 | -0.3 | i | 1.31
CCC(=O)c1ccccc1OCC(=O)Nc1c(C)cccc1C | 117.9 | -27.3 | 100.0 | 0.2 | . | i | 0.96
NS(=O)(=O)c1ccc(CCNC(=O)CSc2nc3ccccc3c(=O)n2CCC(=O)N2CCCCC2)cc1 | 105.9 | 21.4 | 134.5 | 2.0 | . | i | 0.94
CCOC(=O)N1CCN(c2ccc(C(=O)c3cccc(F)c3)cc2)CC1 | 104.3 | -32.3 | 186.2 | 2.3 | -0.2 | i | 1.01
O=C(COC(=O)c1ccc(O)cc1)NCCC1=CCCCC1 | 103.8 | . | . | -2.4 | . | i | 1.03
CCCCCCn1cnc2c(c1=O)c1nc3ccccc3nc1n2Cc1cccs1 | 94.7 | . | . | 13.6 | -2.4 | ? | .
